Screens (PubChem)
HIV TAR-Tat – HIV-1 TAR-Tat binding disruption; 100,000 compounds, 0.6% hits; z-score (concentration not given with the values); HIV-1 TAR RNA, Tat peptide displacement FRET; active compounds read high; AID 1259389;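 also: score is relative to mean and SD of negative controls; some compounds called inactive have numbers as strong as hits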
CDC25B-CDK2 inh – human CDC25B-CDK2/CyclinA binding inhibition; P30305+P24941; HTRF CDC25B-CDK2/CyclinA binding, anti-His/anti-Flag; active compounds read high; z-score (no concentration beside the values); 94,000 compounds, 0.72% hits; AID 1259370;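 also: score is relative to mean and SD of negative controls; strong numbers were not always called active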
* hit, by the source's call; . = not tested or not shown.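 The calls were made as follows: active = z-score from 3 up in half or more of its runs; inactive = the rest.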

Under each structure: HIV TAR-Tat	CDC25B-CDK2 inh
- CC(C)N(C)C1CCN(S(=O)(=O)c2ccc(-c3cc(C(F)(F)F)on3)s2)CC1
→ -0.17	.
- CC(C)c1ccc(-c2c(NCCCN3CCN(C4CCCCC4)CC3)c(=O)c2=O)cc1
→ 2.47	.
- CC1CCc2c(sc3nnn(CC(=O)N(C)C4CCCCC4)c(=O)c23)C1 (centres undefined)
→ 0.42	-0.15
- Cc1ccc(NS(=O)(=O)c2ccc(-n3cccn3)cc2)cc1F
→ 1.61	.
- N#Cc1nc(/C=C/c2ccc(F)cc2)oc1N1CCN(C(=O)c2cccc(Cl)c2)CC1
→ 0.05	0.61
- Cc1nn(C(C)C(=O)NC(C)CCc2ccccc2)c(=O)c2c1sc1ccccc12 (centres undefined)
→ 1.72	-0.04
- CCC(C)(C)NS(=O)(=O)c1cc(-c2cnc(C)o2)ccc1C
→ 1.38	.
- CN(C)S(=O)(=O)c1cccc(C(=O)CN2C(=O)COc3ccccc3C2=O)c1
→ 1.15	0.09
- CCCC1N=C2c3ccccc3N=C(SC(C)C(=O)Nc3cc(OC)cc(OC)c3)N2C1=O (centres undefined)
→ 0.94	.
- O=C(Nc1c(F)cc(F)cc1Br)C1CCCN(c2nnc(N3CCCC3=O)s2)C1 (centres undefined)
→ 3.04	-0.83
- Nc1c(-c2nnc(SCC(=O)c3ccccc3)o2)cnn1-c1ccccc1
→ .	-1.51
- Cc1nc(N2CCOCC2)cc(N2CCN(S(=O)(=O)c3ccccc3Cl)CC2)n1
→ 0.29	-0.29
- CC1CC(=O)Nc2cc(S(=O)(=O)N(Cc3ccco3)C3CCCC3)ccc2S1 (centres undefined)
→ -0.26	.
- Cc1cc(C)c2c(N)c(C(N)=O)sc2n1
→ 1.74	-0.53
- N#Cc1cc2c(=O)n3ccccc3nc2n(-c2cccc(Cl)c2)c1=O
→ -2.5	1.83
- O=C(CN1C(=O)COc2ccc(S(=O)(=O)N3CCCCC3)cc21)N1CCCCC1
→ 0.21	.
- CCN(CC)CCNC(=O)C1CCCN(c2nc3cccnc3s2)C1 (centres undefined)
→ 0.08	.
- Cn1c(CSC2CN(C(c3ccccc3)c3ccccc3)C2)n[nH]c1=S
→ .	13.3*
- CC(C)CCOS(=O)(=O)c1ccc2c(c1)Cc1cc(S(=O)(=O)OCCC(C)C)ccc1-2
→ .	-1.72
- O=C(CSc1nc2cc3c(cc2c(=O)n1Cc1ccco1)OCO3)NCC1CCCO1 (centres undefined)
→ .	1.19

Next part.
Under each structure: HIV TAR-Tat	CDC25B-CDK2 inh
- CN(C)CCCNc1cc(C(F)(F)F)c(C#N)c2nc3ccccc3n12
→ .	0.47
- CSc1sc(C(=O)NC(=O)Nc2ccc(Cl)cc2)c2c1-c1nocc1CC2
→ .	12.8*
- CNC(=O)CSc1cn(CC(=O)N2CC(C)OC(C)C2)c2ccccc12 (centres undefined)
→ -0.33	.
- Brc1ccc(CSc2nc3ccccc3[nH]2)cc1
→ 1.07	1.14
- Cc1ccc(-c2onc(C)c2C)cc1S(=O)(=O)Nc1c(C)cccc1C
→ 1.9	.
- COc1cc(C2Nc3ccccc3-c3nnc(SC)nc3O2)ccc1O (centres undefined)
→ -0.58	2.04
- Oc1ccc(Nc2ncnc3ccccc23)cc1
→ 0.25	-2.31
- Nc1nc2c(c(=O)[nH]1)C(c1ccccc1F)CC(=O)N2 (centres undefined)
→ 3.19	-0.65
- CNC(=O)CSc1cn(CC(=O)N2CCCCC2)c2ccccc12
→ 0.58	.
- COc1ccc2c(c1)c(N1CCCC1=O)c(C(=O)NC1CCCc3ccccc31)n2C (centres undefined)
→ 0.41	.
- CCN1C(=O)C(O)(CC(=O)c2cc(C)ccc2C)c2ccccc21 (centres undefined)
→ 0.12	-0.78
- Cc1cc(=O)nc2c3ccccc3n(CC(=O)N3CCc4ccccc43)n12
→ 2.6	-17
- CN(C)c1ccc(CN(CC2CCCO2)C(=O)c2ccc(Br)cc2)cc1 (centres undefined)
→ 1.56	-0.98
- COc1ccc(NC(=O)N2c3ccccc3Sc3ccccc32)c(OC)c1
→ 0.54	-4.32
- O=C(c1cc(=O)c2ccccc2o1)N(Cc1cccs1)C1CCS(=O)(=O)C1 (centres undefined)
→ 0.73	-0.79
- COc1ccc(N2C(=O)C3N=NN(CC(=O)Nc4cccc(SC)c4)C3C2=O)cc1OC (centres undefined)
→ 0.09	.
- Cc1cc(C)c2nc3s/c(=C\c4cc5c(cc4[N+](=O)[O-])OCO5)c(=O)n3c2c1
→ .	-3.3
- O=C(c1cc(S(=O)(=O)N2CCCC2)ccc1F)N1CCOCC1
→ .	-3.12
- Cc1ccc(C(=O)N2N=C(c3ccc(Cl)cc3)CC2(O)C(F)(F)F)cc1 (centres undefined)
→ .	-1.21
- O=[N+]([O-])C(CO)(CO)c1ccccc1
→ .	0.41

Look-ups from the entries so far:
Oc1ccc(Nc2ncnc3ccccc23)cc1 – CDC25B-CDK2 inh = -2.31
O=C(c1cc(=O)c2ccccc2o1)N(Cc1cccs1)C1CCS(=O)(=O)C1 (centres undefined) – CDC25B-CDK2 inh = -0.79
CNC(=O)CSc1cn(CC(=O)N2CC(C)OC(C)C2)c2ccccc12 (centres undefined) – HIV TAR-Tat = -0.33

The list continues.
Under each structure: HIV TAR-Tat	CDC25B-CDK2 inh
- CC(c1ccccc1)n1c(C2CC(=O)N(c3ccccc3)C2)nc2ccccc21 (centres undefined)
→ 2.88	-0.11
- Cn1c(=O)oc2cc(S(=O)(=O)N3CCC(C(=O)N4CCOCC4)CC3)ccc21
→ .	-1.36
- CCOC(=O)c1cc(S(=O)(=O)N2CCc3ccccc32)[nH]n1
→ 1.45	.
- CCOC(=O)CSc1ccc2nnc(-c3ccc(C)cc3)n2n1
→ .	-1.02
- CCN(CC)S(=O)(=O)c1ccc2c(c1)NC(=O)CCS2
→ 1.9	.
- CCc1nnc(NC(=O)c2nn(-c3cccc(Cl)c3)ccc2=O)s1
→ 0.91	-1.4
- Cc1cc(C)c2oc(C(=O)NCc3ccc4c(c3)OCO4)cc(=O)c2c1
→ 2.2	0.12
- O=C(CCc1nc(CSc2nc3ccccc3s2)no1)Nc1nc(-c2ccccc2)cs1
→ 1.49	.
- Cc1oc(-c2ccc(OC(C)C)cc2)nc1Cn1c(=O)cc(C(F)(F)F)c2c(C)nn(C)c21
→ 0.96	.
- CC1=C(C#N)C(c2ccccc2)C2=C(CC(C)(C)CC2=O)N1 (centres undefined)
→ 0.15	0.35
- CSc1sc(C(=O)NC(=O)NCc2ccncc2)c(C)c1-c1ccon1
→ .	-0.35
- CCOc1ccc(-c2nc(-c3ccc(-c4cccc(OC)c4)nc3OC)no2)cc1
→ -1.74	3.19
- CC(=O)Nc1ccc(C(=O)CSc2nc(C)nc3c2CCC3)cc1
→ -1.04	-0.68
- Cc1ccc(NC(=O)CCc2nnc3ccc(NCc4ccc5c(c4)OCO5)nn23)nc1
→ 2.48	.
- C=CCn1c(SCC(=O)NCCCO)nc2sc3c(c2c1=O)CCCC3
→ .	-2.61
- C=CCc1ccccc1OCc1cc(=O)n2nc(CC)sc2n1
→ 0.47	0.58
- Cc1c(C(=O)NCCC(C)C)oc2ccc(S(=O)(=O)N3CCOCC3)cc12
→ .	-1.28
- CCCCc1ccc(C2C(C(=O)OCC)=C(C)NC3=C2C(=O)CC(C)(C)C3)s1 (centres undefined)
→ 2.29	-1.36
- O=C(NCCCN1CCCCC1)C(=O)Nc1ccc2nc3n(c(=O)c2c1)CCCCC3
→ 1.24	0.55
- COc1ccc(C)cc1-n1nnc(-c2nc(-c3ccccc3)no2)c1N
→ -0.74	.

Given with each value named: 4 of the compounds above.
CCOC(=O)c1cc(S(=O)(=O)N2CCc3ccccc32)[nH]n1
  HIV TAR-Tat: 1.45
  CDC25B-CDK2 inh: .

O=C(CSc1nc2cc3c(cc2c(=O)n1Cc1ccco1)OCO3)NCC1CCCO1 (centres undefined)
  HIV TAR-Tat: .
  CDC25B-CDK2 inh: 1.19

CC(=O)Nc1ccc(C(=O)CSc2nc(C)nc3c2CCC3)cc1
  HIV TAR-Tat: -1.04
  CDC25B-CDK2 inh: -0.68

Cc1c(C(=O)NCCC(C)C)oc2ccc(S(=O)(=O)N3CCOCC3)cc12
  HIV TAR-Tat: .
  CDC25B-CDK2 inh: -1.28

(next part)
Under each structure: HIV TAR-Tat	CDC25B-CDK2 inh
- O=C(O)c1cccc(Nc2ncnc3scc(-c4ccccc4)c23)c1
→ -0.49	-0.32
- O=C(c1cc2nc(-c3cccs3)cc(C(F)(F)F)n2n1)N1CCc2ccccc2C1
→ .	-3.28
- Cc1nc2nc(NCc3cccs3)[nH]n2c(=O)c1CCC(=O)NC(C)C
→ -0.01	1.13
- COc1cc(NC(=O)C(=O)Nc2ccc3nc4n(c(=O)c3c2)CCCCC4)cc(OC)c1OC
→ .	-1.03
- CCOC(=O)c1cc2c(c(CSc3ccc(Cl)cc3)c1)OCOC2
→ .	-1.72
- Cc1ccccc1CN1N=NC2C(=O)N(c3ccccc3)C(=O)C21 (centres undefined)
→ -0.23	-2.08
- CC1CCN(C(=O)c2c3c(nc4ccccc24)C(=O)N(C2CCCCC2)C3)CC1
→ 1.03	.
- O=C1CCSc2ccc(S(=O)(=O)NCCCc3ccccc3)cc2N1
→ -6.18	.
- O=C(O)C1CCCN(c2c(-c3ccccc3)c3cc(Cl)ccc3[nH]c2=O)C1 (centres undefined)
→ 1.48	-1.05
- FC(F)(F)c1cc(-c2ccncc2)nc2c(-c3cccc(Cl)c3)cnn12
→ 0.49	0.84
- CC(C)n1c(N2CCN(C)CC2)nc2c1c(=O)[nH]c(=O)n2C
→ .	-1.09
- O=S(=O)(Cc1ccccc1)N1CCn2c(nc3ccccc32)C1
→ 0.36	0.37
- Cc1nn(-c2ccc(N3CCOCC3)nn2)c(C)c1CCC(=O)NCCC(C)C
→ -2.52	.
- COc1cc(C2N3CC4(C)CN2CC(C)(C3)C4)ccc1O (centres undefined)
→ 3.28	-0.78
- CSc1ccc(-c2nc3cnccn3c2Nc2ccccc2C)cc1
→ 0.26	0.5
- Brc1cc(-c2ccccc2)ccc1OCc1cn2cccnc2n1
→ -0.33	-0.5
- COc1cccc(-c2c3c([nH]c(=O)c2C#N)CCc2cc(OC)ccc2-3)c1
→ .	-1.83
- CCC1(C)Cc2c(sc3c2c2ncnn2c2nnc(SCC(=O)NCc4ccco4)n32)CO1 (centres undefined)
→ 0.72	0.02
- C[C@H]1[C@H]2CCC3[C@@H]4CC=C5C[C@@H](N(C)C)CC[C@]5(C)C4CC[C@@]32CN1C (some centres undefined)
→ 3.77	.
- CCOC(=O)c1sc(NC(=O)Cn2nc(C(F)(F)F)cc2C)c(C(=O)OCC)c1C
→ .	-1.93

Next section:
Under each structure: HIV TAR-Tat	CDC25B-CDK2 inh
- O=C(Cn1c2c(c(=O)n3ncnc13)CCC2)N1CCCCC1
→ 0.67	-1.51
- Cc1ccccc1C1OC2(C(=O)c3ccccc3C2=O)C2C(=O)N(C3CCCCC3)C(=O)C12 (centres undefined)
→ 1.07	0.79
- CC(C)Sc1n[nH]c(=O)n1C(C)C
→ .	-2.74
- CCCc1cc(=O)n2nc(N3CCC(C(=O)Nc4nnc(CC)s4)CC3)sc2n1
→ 1.55	-0.62
- CCNS(=O)(=O)c1ccc(-c2coc(C)n2)cc1
→ -0.32	.
- CC(=O)N1N=C(c2ccccc2Cl)OC1c1nc2nc(C)cc(C)n2n1 (centres undefined)
→ 0.12	.
- CCOc1c(N2CC(C)OC(C)C2)c(=O)c1=O (centres undefined)
→ .	-2.58
- Cc1cn2c(=O)c(S(=O)(=O)N3CCc4ccccc4C3)c(C)nc2s1
→ 0.66	.
- CCOc1ccccc1C1C(C#N)=C(N)OC2=C1C(=O)CCC2 (centres undefined)
→ .	-0.52
- CCOC(=O)c1c(S(=O)(=O)N2CCCCC2C(=O)OCC)c(C)n(C)c1C (centres undefined)
→ 2.52	.
- COc1ccc(S(=O)(=O)c2nnn3c2nc(Nc2ccccc2OC)c2ccccc23)cc1
→ 0.17	-0.71
- COCCn1c(N2CCN(C)CC2)nc2c1c(=O)[nH]c(=O)n2C
→ .	0.87
- CC(=O)Nc1nc(-c2cccs2)cs1
→ 2.12	0.27
- Cc1cc(C2CCCN2S(=O)(=O)c2ccc(Cl)cc2)on1 (centres undefined)
→ 2.32	.
- Cc1cc(C)cc(Nc2c(-c3ccc4c(c3)OCC(=O)N4)c(=O)c2=O)c1
→ -0.99	.
- CCOC(=O)c1cccc(NC(=O)C2c3ccccc3C(=O)N3CCc4ccccc4C23)c1 (centres undefined)
→ .	-0.25
- O=C(C1CCN(c2nnc(N3CCCC3=O)s2)CC1)N1CCN(c2ncccn2)CC1
→ 0.37	.
- CCC1CCCCN1C(=O)CCS(=O)(=O)c1cc(Br)cc2c1N(C(=O)C1CC1)CC2 (centres undefined)
→ 1.26	-0.17
- O=C(CSc1nc2c(sc3ccccc32)c(=O)n1CCCN1CCCC1)NCC1CCCO1 (centres undefined)
→ 0.78	-0.59
- Cc1oc(C)c2c(=O)cc(-c3ccc4c(c3)OCO4)cc(OC(=O)c3ccc(F)cc3)c12
→ -1.86	-2.64

Next section.
Under each structure: HIV TAR-Tat	CDC25B-CDK2 inh
- COc1ccc(Br)cc1CNC(=O)NC1COc2ccccc2C1 (centres undefined)
→ 0.12	.
- C=CCc1ccccc1OCC(O)CN1CCN(Cc2ccc3c(c2)OCO3)CC1 (centres undefined)
→ .	-0.25
- Cc1noc(C)c1C(=O)c1c(C)[nH]n(-c2ccccc2)c1=O
→ .	-1.39
- Cc1ccc(-c2cc(C(F)(F)F)n3nc(C(=O)NC(C)(C)C)nc3n2)cc1
→ 1.21	.
- Cc1nc2sccn2c(=O)c1S(=O)(=O)NCC1CCN(Cc2ccc(F)cc2)CC1
→ 0.45	.
- Oc1cccc(-c2nc(=S)c3c([nH]2)Oc2ccccc2C3)c1
→ -1.68	1.7
- Cc1ccccc1OCc1nc(-c2ccccc2)no1
→ .	-2.19
